Screens (PubChem)
PKD1 inh: inhibitors of human PKD1 kinase, biochemical, fluorescence polarization | PKD1 kinase fluorescence polarization assay | 0.056% of 200,000 active | inhibition, %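 (about 10 µM by stock and volumes)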 | AID 797, 2007;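 active = inhibition of 50% or more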;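 note: controls were vehicle for no effect and a reference inhibitor for full effect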
RGS16-Gao: modulators of RGS16 binding to Galphao, primary screen, biochemical, human proteins, multiplexed bead flow cytometry; Regulator of G-protein signaling 16 (Homo sapiens) + Guanine nucleotide-binding protein …; bead-based flow cytometry RGS16-Galphao binding, fluorescence; actives lie on both sides; binding response (% of control), % at 10 µM; 0.38% of 220,000 active; AID 1441, 2008;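 active = below 25% or above 175%, edge rows of some plates excepted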;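 note: Galphao activated by GDP with aluminum fluoride before binding; 100% = wells without compound and 0% = beads without RGS; some results beyond the cut were filed as inactive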
Target sequence (O15492 whole entry, looked up): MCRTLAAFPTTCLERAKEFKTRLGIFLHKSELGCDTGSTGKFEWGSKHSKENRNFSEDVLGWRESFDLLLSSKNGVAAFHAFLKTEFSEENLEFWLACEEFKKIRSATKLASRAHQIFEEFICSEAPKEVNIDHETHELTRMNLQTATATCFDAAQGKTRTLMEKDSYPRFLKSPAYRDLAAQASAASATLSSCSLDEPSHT
Target sequence (P09471 whole entry, looked up): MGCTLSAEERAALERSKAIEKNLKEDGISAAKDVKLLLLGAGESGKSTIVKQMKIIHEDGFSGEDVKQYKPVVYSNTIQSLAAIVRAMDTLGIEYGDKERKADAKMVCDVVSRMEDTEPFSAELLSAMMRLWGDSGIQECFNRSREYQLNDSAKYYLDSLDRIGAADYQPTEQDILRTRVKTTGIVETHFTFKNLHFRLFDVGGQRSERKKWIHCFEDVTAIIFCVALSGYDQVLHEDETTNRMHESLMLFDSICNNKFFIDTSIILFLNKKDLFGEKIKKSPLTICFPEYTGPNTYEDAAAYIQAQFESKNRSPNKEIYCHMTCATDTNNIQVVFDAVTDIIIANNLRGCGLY
GALR2 agonist: GALR2 receptor agonists, primary screen, cell-based | 0.48% of 140,000 active | activation, %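 (tested at 5 µM)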 | Galanin receptor type 2 (Homo sapiens), O43603 | GALR2-expressing cells, agonist activation read-out;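 active = above mean plus 3 SD of all compounds, about 5% in these data, not always enough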;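 note: 0% = vehicle buffer wells and 100% = reference agonist at full effect; tested in CHO reporter cells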
Target sequence (O43603 whole entry, looked up): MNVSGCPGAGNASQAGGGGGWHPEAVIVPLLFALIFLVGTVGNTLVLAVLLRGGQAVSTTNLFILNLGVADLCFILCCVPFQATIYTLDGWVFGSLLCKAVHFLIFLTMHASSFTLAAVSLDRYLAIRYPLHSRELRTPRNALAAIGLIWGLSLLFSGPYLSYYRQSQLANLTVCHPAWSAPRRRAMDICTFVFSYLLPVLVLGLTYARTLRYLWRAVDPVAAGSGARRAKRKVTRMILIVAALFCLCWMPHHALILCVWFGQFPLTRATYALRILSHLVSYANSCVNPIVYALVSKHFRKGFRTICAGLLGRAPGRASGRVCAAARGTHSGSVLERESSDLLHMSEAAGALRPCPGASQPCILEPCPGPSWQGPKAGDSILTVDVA
INS promoter inh: inhibitors of insulin promoter-driven GFP, primary screen, imaging, TRM-6 cells (human fetal islet line), eGFP reporter, cell count; inhibition, % at 2 µM; 0.9% of 130,000 active; reporter expression induced with tamoxifen;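 active = inhibition above the mean plus 3 SD, with well images judged a real hit on visual review, cut at about 60% in these data, passing the limit was not always enough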
HSV augment: enhancers of HSV replication in host cells, fold increase, host cell viability; maximum fold increase; AID 1956, 2009; 0.005% of 220,000 active; HSV replication augmentation in cells;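 active = peak rise of 1.5-fold or more in the series; tested in PC3 cells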;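 note: first round at 10 µM; read as green reporter fluorescence; hits show the peak of a series up to 25 µM; 1 = signal of infected wells without compound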
INS promoter inh cell count: further read-out of INS promoter inh, marked with its call; normalized cell count, %; measured here: cell count, toxicity; reference of the scale not given here;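 cells exposed to compound for 48 h; stained nuclei by imaging scaled within each plate; lower means fewer cells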
HSV augment primary fold: second read-out of HSV augment, no call of its own (marks repeat the call); fold increase; compound at 10 µM; measured here: primary screen fold increase 10 uM; tested in PC3 cells;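 GFP signal in the first replicate; 1 = infected wells without compound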
Active calls of the source: *; i = inactive; x = not tested or not shown.

mol,PKD1 inh,RGS16-Gao,GALR2 agonist,INS promoter inh,INS promoter inh cell count,HSV augment,HSV augment primary fold
CNC(=O)CCCc1nc(-c2ccccc2Cl)no1,-4,112,4.2,29,115,i,1
CC(OC(=O)c1oc2ccccc2c1COc1ccccc1)C(N)=O (configuration not stated),0,104,x,-50,143,i,1.1
Nc1ncnc2oc(-c3ccco3)c(-c3ccco3)c12,-5,93,-1.0,-14,109,i,1
Cc1ccc(S(=O)(=O)N(C)C)cc1NC(=S)NCCc1ccccn1,-8,99,x,56,88,i,0.96
COc1ccc(NC(=O)CSc2n[nH]c(N)n2)cc1OC,-9,102,x,-332,57,i,1
CCOc1ccc(/C=C2/C(=O)N(c3ccc(OC)cc3)C(=S)N2CC(=O)OC)cc1OCC,-2,108,0.4,46,83,i,0.73
CCCNCC(O)COc1ccccc1C(=O)CCc1ccccc1 (configuration not stated),-11,105,-0.9,-23,51,i,0.93
CCCc1nnc(SCC(=O)N2CCCCC2C)n1CC1CCCO1 (configuration not stated),-1,96,-3.4,-22,162,i,0.94
CSCC(C)N1CCC(CO)(CCCc2ccccc2)CC1 (configuration not stated),-7,98,x,x,x,i,1.1
O=C(COc1cc(Cl)ccc1Cl)Nc1ccc2c(c1)CCC2,8,105,-0.8,-38,112,i,0.83
CN1CC=C2C(C#N)=C(N)C(C#N)(C#N)C(c3ccsc3)C2C1 (configuration not stated),-5,98,-0.3,-51,91,x,x
O=C(Nc1cccc(F)c1)c1cc(S(=O)(=O)NCCC2=CCCCC2)ccc1F,-5,37,-2.2,x,x,i,0.91
N#Cc1ccc(NC(=O)N2CCC(c3nc4c(nnn4Cc4cccc(Cl)c4)c(=O)[nH]3)CC2)cc1,6,105,-0.9,x,x,i,0.92
COc1ccc(C)cc1NC(=O)CN(C)S(=O)(=O)c1cccs1,-2,94,-1.4,-5,83,i,0.97
COc1cccc(N(C(=O)C2CSC(=O)C2)C(C(=O)NC(C)(C)C)c2ccncc2)c1 (configuration not stated),9,98,x,25,100,i,1.1
COc1cc(C(=O)Nc2ccc3c(c2)Cc2cc(NC(=O)c4cc(OC)c(OC)c(OC)c4)ccc2-3)cc(OC)c1OC,-2,106,0.3,x,x,i,0.95
COc1cc2ccc(=O)oc2c(O)c1OCC=C(C)C,11,87,1.3,x,x,i,1.1
CC(C)C(=O)NC(=S)Nc1ccc(S(=O)(=O)NC(C)(C)C)cc1,-14,102,-2.9,14,97,i,1.1
CC(C)CC(=O)NC(=S)NCc1ccccc1,11,89,0.0,-24,60,i,1
CCN(CC)S(=O)(=O)c1cc(NC(=O)c2ccc(Br)s2)ccc1C,0,106,x,37,131,i,1
C[n+]1ccn(CC(=O)c2ccc(Cl)cc2)c1,1,105,0.3,-19,152,i,1.1
COc1cc(OC)cc(-c2n[nH]c(=S)n2-c2ccc3c(c2)OCCO3)c1,10,94,x,x,x,i,1.1
COCCN(C(=O)C(F)(F)F)C(C(=O)NC1CCCCC1)c1ccco1 (configuration not stated),2,58,-2.0,x,x,i,1.1
Cc1ccc(COc2coc(CO)cc2=O)cc1,-5,91,-2.0,-19,103,i,1.1
Cc1ccc2c(c1)NC(=O)C(CC(=O)Nc1ccc(CN3CCC(C)CC3)cc1)O2 (configuration not stated),0,99,-0.8,x,x,i,0.91
COc1ccc(C(=O)NC2(C(F)(F)F)N=C3SCCN3C2=O)cc1 (configuration not stated),-20,101,-1.3,x,x,i,1.1
CC1CCN(C(=O)CSc2nc3[nH]ncc3c(=O)[nH]2)CC1,-3,107,-0.8,x,x,i,1
O=C(Nc1cc2c(ccc3ccccc32)oc1=O)C1CCCCC1,-1,113,-1.7,x,x,i,0.89
Cn1c(SCC(=O)N2CCCc3ccccc32)nnc1-c1ccccc1,2,86,-1.5,x,x,i,0.98
Cc1ccsc1/C=N\NC(=O)CC(=O)NCc1ccccc1,2,102,x,x,x,i,1
CC(C)(C)c1ccc(C(=O)O)c(C(=O)c2ccccc2)c1,0,102,x,x,x,i,0.82
CN(C)C(CNC(=O)Cc1ccc([N+](=O)[O-])cc1)c1ccccc1 (configuration not stated),10,100,x,14,148,i,0.92
Fc1ccc(/C=N/NC2=Nc3cccc4cccc2c34)cc1,-1,95,-3.6,-34,137,i,1
NC(=O)c1c(NC(=O)Cn2nc(C(=O)O)c3ccccc3c2=O)sc2c1CCC2,x,97,x,x,x,i,1
Cc1noc(C)c1CSc1nnc2scc(-c3ccccc3)n12,-5,104,-0.9,x,x,i,0.91
CC(C)(C)NC(=O)Nc1ccc(F)c(Cl)c1,-7,92,x,x,x,i,1.1
Cc1csc(NC(=O)CSc2nnc(CCNC(=O)c3cccs3)n2C)n1,4,103,-2.5,-370,81,i,1
CCOc1ccc(N2CC(C(=O)Nc3cc(C)on3)CC2=O)cc1 (configuration not stated),4,110,-0.5,x,x,i,0.96
CC(=O)Nc1ccc(C(=O)N2CC(=O)NC(=O)C2)cc1,x,104,x,x,x,i,0.99
COC(=O)c1ccccc1NC(=O)CN1CCC(NC(=O)c2ccc(C)cc2)CC1,-5,114,-0.7,x,x,i,1
Cc1ccccc1NC(=O)c1c2c(nc3ccccc13)CCC2,-8,98,x,x,x,i,1
CCOc1ccc(-n2c(SCC(=O)NCc3ccco3)nc3c([nH]c4ccccc43)c2=O)cc1,-10,x,-0.9,-30,139,i,0.74
O=C(CNS(=O)(=O)c1ccc(F)cc1)N1CCN(c2ccccc2)CC1,-6,86,-1.5,31,107,i,0.94
CCOC(=O)Cc1csc(NC(=O)Nc2ccc(C)cc2)n1,x,97,x,x,x,i,0.84
COc1ccccc1NC(=S)NC(C)=O,-6,101,x,32,141,i,1.1

By substructure: those above with a CF3 group
mol,PKD1 inh,RGS16-Gao,GALR2 agonist,INS promoter inh,INS promoter inh cell count,HSV augment,HSV augment primary fold
COCCN(C(=O)C(F)(F)F)C(C(=O)NC1CCCCC1)c1ccco1 (configuration not stated),2,58,-2.0,x,x,i,1.1
COc1ccc(C(=O)NC2(C(F)(F)F)N=C3SCCN3C2=O)cc1 (configuration not stated),-20,101,-1.3,x,x,i,1.1

(cont.)
mol,PKD1 inh,RGS16-Gao,GALR2 agonist,INS promoter inh,INS promoter inh cell count,HSV augment,HSV augment primary fold
COc1ccc(CCN(C)CC(O)c2ccccc2)cc1OC (configuration not stated),-3,100,x,x,x,i,0.86
Cn1c(=O)c2c(nc(N/N=C/c3ccc(OC(=O)c4ccco4)cc3)n2Cc2ccccc2Cl)n(C)c1=O,5,104,-0.5,36,100,i,0.89
CCOC(=O)c1c(C)[nH]c(C(=O)COC(=O)c2ccc(N3CCCC3=O)cc2)c1C,7,101,-0.6,36,149,i,0.88
COc1ccc(C(C)=O)cc1CSc1nc2nc(C)cc(C)n2n1,-7,100,x,x,x,i,0.91
CC(=O)N1N=C(c2ccc(C)o2)CC1c1ccc(Br)cc1 (configuration not stated),-8,115,-2.3,x,x,i,1
Cc1ccc(-c2c[n+](CC(=O)N3c4ccccc4Sc4ccccc43)c3n2CCC3)cc1,8,103,-1.8,x,x,i,0.85
COc1cc2[nH]c(=O)n(CCCCCC(=O)N3CCN(c4ccccn4)CC3)c(=O)c2cc1OC,4,96,-0.8,5,73,i,0.95
CC1=NN(S(=O)(=O)c2ccc(Cl)cc2Cl)C(=O)c2ccccc2O1,x,102,x,x,x,i,0.87
CNC(=O)c1nc(C)c(C2(C)CC(c3cccc([N+](=O)[O-])c3)=NO2)s1 (configuration not stated),x,101,x,x,x,i,0.95
CS(=O)(=O)N1CCN(S(=O)(=O)c2ccccc2[N+](=O)[O-])CC1,-8,101,x,x,x,i,1
O=C1OC(Nc2ccc(F)cc2F)c2ccccc21 (configuration not stated),0,112,-1.9,21,230,i,0.91
Cc1cc(OC(=O)c2c(F)cc(F)cc2F)nc(C)n1,-6,102,x,x,x,i,0.95
O=C(Cn1nnc2ccccc2c1=O)N1CCOCC1,-3,106,x,53,100,i,0.91
Cc1ccc(O)c(C(=O)c2cnn(C(=O)COc3ccccc3C#N)c2)c1,x,109,x,x,x,i,0.92
COCCSc1ccccc1C(=O)Nc1cc(C)cc(C)c1,3,99,x,x,x,i,0.92
CCc1oc2c(C)c(O)ccc2c(=O)c1-c1ccc2ccccc2n1,5,97,-1.6,21,93,i,1
Cc1ccc(-n2c(CNc3ccc(F)cc3)nnc2SCC(=O)N2CCOCC2)cc1,-7,102,-1.3,50,99,i,1
CCOCCOC(=O)c1cccc(NC(=O)OCC)c1,-2,108,-2.2,16,118,i,1
CCn1nnc(-c2ccccc2NS(=O)(=O)c2ccc(S(=O)(=O)N3CCCCCC3)cc2)n1,14,94,-2.6,6,112,i,0.78
CCOC(=O)c1ccccc1NC1CC(=O)N(c2ccccc2C)C1=O (configuration not stated),1,97,-1.9,24,55,i,1
COCCN(C(=O)CSc1nnc(C)n1Cc1ccccc1)c1c(N)n(Cc2ccccc2)c(=O)[nH]c1=O,-1,108,x,-67,39,i,1
COc1ccc(CCNC(=O)CN2C(=O)c3ccccc3C2=O)cc1,2,26,-2.6,25,36,i,0.69
Brc1ccc(C2=Nn3c(Cn4nnc5ccccc54)nnc3SC2)cc1,x,101,x,x,x,i,1.1
CCC(CC)C(=O)c1c[nH]c(C(=O)NCC2CCCO2)c1 (configuration not stated),-2,104,-2.8,-31,78,i,0.97
O=C(O)c1cccc(NC(=S)NC(NC(=O)c2cccc([N+](=O)[O-])c2)C(Cl)(Cl)Cl)c1 (configuration not stated),x,98,x,x,x,i,0.87
O=C(CSc1nnc(-c2ccccc2)o1)Nn1cnnc1,-2,101,0.7,x,x,i,0.88
CCOC(=O)/C(C#N)=C\C1=C(N2CCCC2)CC(C)(C)OC1,-4,121,-2.0,3,56,i,0.95
Cc1ccc2[nH]c(-c3cccc(F)c3)cc(=O)c2c1,-3,99,1.9,-150,8,i,0.55
Cn1nc(OC(=O)Nc2ccc(Cl)cc2)cc1C(F)(F)F,-5,100,0.5,x,x,i,0.99
Cc1ccc(NC(=O)C(C)NC(=O)OCc2ccccc2)cc1C (configuration not stated),x,103,x,x,x,i,0.99

Brought forward from above: three compounds, then new ones.
mol,PKD1 inh,RGS16-Gao,GALR2 agonist,INS promoter inh,INS promoter inh cell count,HSV augment,HSV augment primary fold
Cc1ccc2[nH]c(-c3cccc(F)c3)cc(=O)c2c1,-3,99,1.9,-150,8,i,0.55
Cn1nc(OC(=O)Nc2ccc(Cl)cc2)cc1C(F)(F)F,-5,100,0.5,x,x,i,0.99
Cc1ccc(NC(=O)C(C)NC(=O)OCc2ccccc2)cc1C (configuration not stated),x,103,x,x,x,i,0.99
CCOC(=O)C1NN=C(C(=O)c2ccccc2)C1c1ccccc1 (configuration not stated),6,117,-1.1,29,75,i,1
COc1cccc(-n2c(CN3CCN(Cc4ccccc4)CC3)nc3ccc([N+](=O)[O-])cc3c2=O)c1,3,113,0.4,3,119,i,0.9
CCCc1ccc(-c2cc(N)n[nH]2)cc1,5,101,-2.7,17,92,i,0.83
Cc1cnc(NC(=O)c2cncc(Br)c2)s1,-4,101,x,x,x,i,0.93
CC(C)=NNc1nc2c(c(=O)[nH]c(=O)n2C)n1CCc1ccccc1,-6,101,x,22,51,i,0.9
O=C(Nc1ccc(-c2nc3ccccc3[nH]2)cc1)c1ccc(N2C(=O)CCC2=O)cc1,-9,66,0.0,0,132,i,0.87
CCN(CC)CCCNC(=O)Cn1cc2c(n1)CCC(C)C2 (configuration not stated),-4,104,-1.7,x,x,i,0.81
Cc1cccc(N2CCN(c3ccc(N4C(=O)CCCC4=O)cc3[N+](=O)[O-])CC2C)c1 (configuration not stated),-9,99,-0.1,24,120,i,0.93
Clc1ccc(SCCCCN2CCNCC2)cc1,-5,103,0.7,7,130,i,0.77
COc1ccc(CNc2nc3ccccc3n2CCN2CCOCC2)cc1,5,115,-2.5,-462,40,i,0.95
COc1cccc(OC)c1C(=O)Nc1ccc(S(=O)(=O)Nc2cc(C)nc(C)n2)cc1,-4,97,-0.1,31,112,i,1
